# High-throughput results deposited in PubChem by SRMLSC.
# H5N1 CPE – antiviral screen in MDCK cells, H5N1 avian flu; 96,000 compounds, 0.07% hits; cytopathic effect, luminescence, 72 h; stronger effect = higher value; no value below 0 was filed and about half of the inactive calls have no number; reference of the scale not given here; inhibition, % at 50 µM; in the data active = inhibition above about 25%
# * marks the source's active call; other numbers are inactive results; i = inactive. Only part of the results is shown; rates above refer to the full screens.
SMILES,H5N1 CPE
COc1ccc(N2C(=O)C3CCCN3C2c2ccc(C)cc2)cc1 (stereo unspecified),0.3
O=c1c(-c2ccc(Cl)cc2)[n+]([O-])c2ccccc2n1O,i
Cc1cc(NC(=O)C2CCCCC2)n(-c2nc3ccccc3[nH]2)n1,i
CCSc1nnc(NC(=O)c2cc(C)oc2C)s1,0.5
O=C(Cn1cc2c(n1)CCCC2)Nc1ccccc1Cl,6.3
C=CCn1c(Cc2cccs2)nnc1SCC(=O)Nc1ccc(C(=O)OCC)cc1,i
COc1cccc(C2C(C#N)=C(N)Oc3cc(C)[nH]c(=O)c32)c1OC (stereo unspecified),i
CCOc1ccc2nc(SCC(=O)Nc3ccc4c(c3)OCCO4)[nH]c2c1,i
CC1=CC(C)=Nc2ccc(C)cc2N1,i
N/C(COc1ccc(Cl)cc1Cl)=N\NS(=O)(=O)c1ccccc1,i
CCc1ccccc1N(CC(=O)NCc1ccco1)C(=O)c1snc(C(N)=O)c1N,0.4
O=C(C1CCCN(S(=O)(=O)c2ccc(F)cc2)C1)N1CCCC1 (stereo unspecified),i
O=C(Nc1cnn(Cc2ccc(Cl)cc2)c1)C1CCCC1,i
O=C(O)C1CC(c2cccc(Br)c2)=NO1 (stereo unspecified),i
O=C(c1cc(-c2cccc(O)c2)on1)N1CCN(C(c2ccccc2)c2ccccc2)CC1,4.9
O=C(Cn1nc(-c2ccccc2)ccc1=O)Nc1ccc(N2CCN(C(=O)c3ccccc3)CC2)cc1,1.2
CCN1C(=O)/C(=C/N2CCc3ccccc32)SC1=S,0.3
Cc1cc(Cl)cc(C)c1OCCCCn1ccnc1,i
CCN(CC)S(=O)(=O)c1ccc(NC(=O)C2COc3ccccc3O2)cc1 (stereo unspecified),2.4
COc1cccc(-c2cc(C(F)(F)F)n3nc(N)nc3n2)c1,3.0

# Reformatted bar-delimited: entries from further up.
SMILES | H5N1 CPE
CCSc1nnc(NC(=O)c2cc(C)oc2C)s1 | 0.5
O=C(Cn1cc2c(n1)CCCC2)Nc1ccccc1Cl | 6.3
C=CCn1c(Cc2cccs2)nnc1SCC(=O)Nc1ccc(C(=O)OCC)cc1 | i
COc1cccc(C2C(C#N)=C(N)Oc3cc(C)[nH]c(=O)c32)c1OC (stereo unspecified) | i
CCOc1ccc2nc(SCC(=O)Nc3ccc4c(c3)OCCO4)[nH]c2c1 | i
CC1=CC(C)=Nc2ccc(C)cc2N1 | i
N/C(COc1ccc(Cl)cc1Cl)=N\NS(=O)(=O)c1ccccc1 | i
CCc1ccccc1N(CC(=O)NCc1ccco1)C(=O)c1snc(C(N)=O)c1N | 0.4
O=C(C1CCCN(S(=O)(=O)c2ccc(F)cc2)C1)N1CCCC1 (stereo unspecified) | i
O=C(Nc1cnn(Cc2ccc(Cl)cc2)c1)C1CCCC1 | i
O=C(O)C1CC(c2cccc(Br)c2)=NO1 (stereo unspecified) | i
O=C(c1cc(-c2cccc(O)c2)on1)N1CCN(C(c2ccccc2)c2ccccc2)CC1 | 4.9
O=C(Cn1nc(-c2ccccc2)ccc1=O)Nc1ccc(N2CCN(C(=O)c3ccccc3)CC2)cc1 | 1.2
CCN1C(=O)/C(=C/N2CCc3ccccc32)SC1=S | 0.3
Cc1cc(Cl)cc(C)c1OCCCCn1ccnc1 | i
CCN(CC)S(=O)(=O)c1ccc(NC(=O)C2COc3ccccc3O2)cc1 (stereo unspecified) | 2.4
COc1cccc(-c2cc(C(F)(F)F)n3nc(N)nc3n2)c1 | 3.0

# Later entries.
SMILES,H5N1 CPE
Cc1ccccc1-c1nnn(CC(=O)c2ccc(S(=O)(=O)N3CCCC3)cc2)n1,0.4
CC1CCCN(C(=O)N2c3ccccc3Sc3ccccc32)C1 (stereo unspecified),i
CCC(=O)Nc1ccc(C(=O)Nc2ccc3c(c2)C(=O)N(CC2CCCO2)C3=O)cc1 (stereo unspecified),0.1
COc1ccccc1S(=O)Cc1ccc(C(=O)NC2CCCC2)o1 (stereo unspecified),0.9
Cc1ccc(C)c(NC(=O)CCC(=O)NNC(=O)c2cccc([N+](=O)[O-])c2)c1,i
O=c1c(-c2nnc(SCc3ccc(Cl)cc3Cl)o2)cccn1Cc1ccccc1,i
O=C(Cn1nnc(-c2ccc(S(=O)(=O)N3CCCC3)cc2)n1)NCC1CCCO1 (stereo unspecified),i
CCC1(NC(C)=O)CC2CC1CC2NC(C)=O (stereo unspecified),i
COc1ccccc1CCNC(=O)CSc1nc(-c2ccco2)cc(C(F)(F)F)n1,1.4
c1ccc2nc(-c3nc4ccccc4o3)ccc2c1,0.8
CC(C)c1ccc(C2CC(=O)c3cnc(N4CCc5ccccc5C4)nc3C2)cc1 (stereo unspecified),0.4
CN(C)c1nc(N)nc(CSc2ncc(Cl)cc2Cl)n1,1.4
COCCNC(=O)C(c1cccs1)N(C(=O)Cn1nnc2ccccc21)c1ccccc1 (stereo unspecified),1.6
Cc1nnc(N(C)C(=O)Cc2ccc3c(c2)OCO3)s1,i
Cn1c(=O)c2c(nc(CN3CCN(C(=O)c4ccco4)CC3)n2Cc2ccc(Cl)cc2)n(C)c1=O,2.0
COC(=O)C1(C)NC(=O)c2ccccc2N1 (stereo unspecified),0.5
COc1cc(OC)cc(-c2nnc(SCC(=O)NCc3cccs3)o2)c1,i
CN(C(=O)COc1cc(=O)n(C)c2ccccc12)c1cccc(Cl)c1,0.9
c1ccc(C2CC3CC4(CCCC4)N2O3)cc1 (stereo unspecified),1.2
Cn1c(=O)[nH]c(=O)c2c1nc(N1CCOCC1)n2CCN1CCOCC1,0.6
COC(=O)C1=C(C(C)=O)C(c2ccc(C)cc2)n2nnnc2N1 (stereo unspecified),i
Cc1nn(Cc2ccc(Br)cc2)c(C)c1NC(=O)c1nn(C)cc1Cl,0.2
O=C(COC(=O)c1ccc[nH]c1=O)NC1CCCC1,i
CCc1ccc(OCC(=O)NC(=S)Nc2ccc(F)cc2)c(Br)c1,1.5
c1ccc(-n2nnc3c(N4CCOCC4)ncnc32)cc1,i
O=S(=O)(N/N=C\C=C\c1ccccc1)c1ccc(Cl)cc1,0.2
CCCn1nnc(NC(=S)NC(=O)CC)n1,1.0
Cn1c(C(=O)N2CCCc3ccccc32)cc2c(=O)n3ccccc3nc21,i
O=C(NCC1COc2ccccc2O1)C1CCCN(S(=O)(=O)c2cccc3cccnc23)C1 (stereo unspecified),2.1
CCCOc1ccc(C(=O)CCNc2ccc(C)c(Cl)c2)cc1,i
Cc1ccccc1CSc1nc2c(c(=O)[nH]1)CCCC2,1.0
COn1c(SCc2ccc(C)cc2C)nc2ccccc2c1=O,8.7
O=C(CCN1CCN(c2ccccc2F)CC1)c1ccc(Br)cc1,i
CC(=O)Nc1ccc(S(=O)(=O)NC2(C(F)(F)F)C(=O)Nc3c2c(=O)n(C)c(=O)n3C)cc1 (stereo unspecified),1.2
Cc1cc(C)c(C#N)c(OCC(=O)c2ccc(Br)cc2)n1,0.5
CCC(C)c1ccc(NC(=O)CC(C)=O)cc1 (stereo unspecified),i
COC(=O)Nc1sc2c(c1C(N)=O)CCCCCC2,1.0
COc1ccccc1NC(=O)Cn1nc(C(F)(F)F)c2c1CCCC2,i
Cc1nn(C2CCOC(C)(C)C2)c2c1C(c1ccc3c(c1)OCO3)SCC(=O)N2 (stereo unspecified),4.3
O=C(CCc1nc(-c2ccccc2F)no1)N1CCC2(CC1)OCCO2,1.5
Cc1ccc(S(=O)(=O)Cc2ccc(C(=O)OCc3ccccc3)cc2)cc1,0.6
O=C(O)c1ccccc1C(=O)N1CC=C(c2ccccc2)CC1,i
O=C(CCSc1ccc(Cl)cc1)NC1CCCCC1,0.3
Cc1nc(-c2cccc(NS(C)(=O)=O)c2)cs1,i
CCN1CCN(C(=O)c2ccccc2N(Cc2ccccc2)S(C)(=O)=O)CC1,1.3
COc1ccccc1NC(=O)c1ccccc1NS(C)(=O)=O,i
O=C1c2ccccc2C(Nc2ccc(Cl)cn2)N1c1cccnc1 (stereo unspecified),i
CCCC(C)NC(=O)c1ccc(F)cc1 (stereo unspecified),i
CCCc1cc(=O)oc2cc3occ(C)c3cc12,i
CCOc1ccc(NC(=O)C2CC(=O)N=C(N)S2)cc1 (stereo unspecified),i
S=c1[nH]nc(-c2ccccc2)o1,i
CCC(C)(C)n1nnnc1C(c1ccc(C)cc1)N1CCN(Cc2cccnc2)CC1 (stereo unspecified),i
CCOC(=O)C1=C(C)OC(N)=C(C#N)C1c1ccsc1 (stereo unspecified),i
CCC(C)(C(=O)NC1CCCCC1)N(C(=O)c1ccccn1)c1ccccc1 (stereo unspecified),4.3
Cc1ccc(-n2c(SCC(=O)OC(C)C)nnc2-c2ccncc2)cc1,0.3
CCOc1ccc(NC(=O)c2nccnc2CO)cc1,i
O=C(O)CCc1nc2ccccc2n(CCc2ccccc2)c1=O,i
Cc1ccc(C2(C)NC(=O)N(CC(=O)Nc3ccc4c(c3)OCO4)C2=O)cc1 (stereo unspecified),1.4
CC1=C(C(=O)Nc2ccccc2)C(c2ccco2)NC(=S)N1 (stereo unspecified),i
CCOC(=O)Cn1cc(C(=O)c2ccco2)c2ccccc21,i
# Additional structures
SMILES,H5N1 CPE
Cc1ccc2nc(NC(=O)CCNS(=O)(=O)c3cccs3)sc2c1,i
Cc1nn(C(C)(C)C)c(OC(=O)c2ccc3c(c2)OCO3)c1Sc1ccccc1,i
CCCSc1nnc(CSc2nc3ccccc3s2)n1-c1ccccc1,i
Cc1ccc(-c2nn(C)c(=O)c3ccccc23)cc1CN1CCOCC1,0.1
O=C(Nn1c(O)c(C=C2N=c3ccccc3=N2)sc1=S)c1ccccc1Cl,0.1
CCOc1ccc(N2C(=O)c3cccnc3C2=O)cc1,0.2
CC1=CCC2C(=O)N(c3nc(C)cc(C)n3)C(=O)C2C1 (stereo unspecified),0.3
COc1cccc(C(=O)N2CCN(C3CCC(c4ccccc4)CC3)CC2)c1 (stereo unspecified),2.4
CN1CCN(c2oc(-c3cccs3)nc2S(=O)(=O)c2ccccc2)CC1,i
O=C(c1ccc(NS(=O)(=O)c2ccccc2)cc1)N1CCN(Cc2ccc3c(c2)OCO3)CC1,i
O=C(N/N=C/c1cc([N+](=O)[O-])ccc1Cl)c1ccc2nc[nH]c2c1,0.3
CCOC(=O)c1sc(NC(=O)CSc2ncn(-c3ccccc3)n2)nc1C,1.3
CON=C1CCN(c2ncc(C(F)(F)F)cc2Cl)CC1,0.7
N#Cc1ccc(NC(=O)CN2C(=O)NC(Cc3ccccc3)C2=O)cc1 (stereo unspecified),0.2
Cn1c(=O)oc2ccc(C(=O)CSc3nnnn3-c3ccccc3)cc21,i
Cc1noc(NC(=O)c2ccccc2)c1C#N,3.8
CCOC(=O)C(NC(=O)c1ccccc1)(N1CCCC1=O)C(F)(F)F (stereo unspecified),i
COc1ccc(C2=NOC3(CC(=O)N(c4ccc5ccccc5c4)C3=O)C2)c(OC)c1 (stereo unspecified),0.2
O=C(CCC(=O)N1CCN(C2CCCCC2)CC1)Nc1nnc(C(F)(F)F)s1,i
CCCCNC(=O)COC(=O)c1cc(F)c(F)cc1Cl,i
O=C(c1cc(S(=O)(=O)N2CCCCC2)c(Cl)cc1N1CCOCC1)N1CCOCC1,0.6
CCOc1ccc(OCC)c(NC(=O)CN(c2ccc(C)cc2)S(=O)(=O)c2c(C)noc2C)c1,0.2
Cc1cccc(C)c1NC(=O)Cn1nnc(-c2ccc(N3CCOCC3)cc2)n1,0.8
O=C(NCc1ccccc1)c1onc(CSc2ccc(F)cc2)c1C(=O)NCCCN1CCOCC1,i
CCCc1[nH]nc2c1C(c1cccc(OC(=O)c3ccco3)c1)C(C#N)=C(N)O2 (stereo unspecified),i
COc1ccccc1NC(=O)c1ccc2nc(-c3ccccc3)c(-c3ccccc3)nc2c1,0.8
CC(C)CCn1c(=O)c2ccccc2n2c(CN(C)Cc3ccccc3)nnc12,i
CC1=N/C(=C\c2ccc([N+](=O)[O-])cc2)C(=O)N1c1cc(Cl)ccc1C,i
O=C(c1ccccn1)c1conc1C(=O)c1ccc(Br)cc1,i
Cc1ccc(-c2noc(CN(C(=O)Cc3ccccc3)C(C)C)n2)cc1,0.4
O=C(COc1ccc(S(=O)(=O)NC2CCCC2)cc1)N1CCCCCC1,1.1
Nc1c(-c2ccccc2)cnc2ncnn12,0.3
C=CCNc1nc(N2CCOCC2)c(C#N)c2c1CN(C)CC2,4.3
COc1ccc(N=Cc2ccc(CNS(=O)(=O)c3ccc(Cl)cc3)o2)cc1,i
CCC(C)c1ccc2oc(-c3ccc(NC(=O)c4ncn[nH]4)cc3)nc2c1 (stereo unspecified),0.2
CCN1C(=O)c2cccc3c(NC(=O)c4ccc(S(=O)(=O)N5CCOCC5)cc4)ccc1c23,i
CCOc1cc(-c2nc3cc(C)ccn3c2NCC2CCCO2)ccc1O (stereo unspecified),0.0
COc1ccc(OC)c2c(C)cc(NCCN3CCOCC3)nc12,i
CCSc1nnc(NC(=O)c2ccccn2)s1,5.5
O=S(=O)(c1cccs1)N1CCN(CC(O)COc2cc(Cl)ccc2Cl)CC1 (stereo unspecified),2.2
O=C(NCC12CC3CC(CC(C3)C1)C2)c1cc2n(n1)C(C(F)(F)F)CC(c1ccco1)N2 (stereo unspecified),0.1
CCOC(=O)N1CCN(C(=O)CSCC(=O)Nc2nc(-c3ccc(OC)cc3)cs2)CC1,0.3
COC(=O)c1ccc(NC(=O)C2CCCO2)cc1 (stereo unspecified),i
CCOC(=O)c1c(C)[nH]c(C(=O)COC(=O)C(C)N2C(=O)C3CCCCC3C2=O)c1C (stereo unspecified),i
Cc1ccsc1C(=O)N/N=C/C=C/c1ccccc1[N+](=O)[O-],i
Cc1nc(N)nc(Nc2ccc(Cl)cc2)c1Br,3.9
O=C1NC(c2ccccc2)=NC1(NS(=O)(=O)c1ccccc1)C(F)(F)F (stereo unspecified),i
O=C(NCC(c1cccnc1)N1CCN(c2ccccc2F)CC1)c1ccco1 (stereo unspecified),2.5
CCOc1cc(C(=O)OCC(=O)NCc2ccco2)cc(OCC)c1OCC,0.4
